From PubChem
ugtP null kill: growth inhibition of S. aureus ugtP deletion strain; growth inhibition, % (test concentration not listed); S. aureus RN4220 ugtP deletion, OD600 growth, 16 h; some inactives read as strong as hits; AID 1259309; actives 0.54% (n = 330,000);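 active means z-score under -3 and OD600 up to 0.15 on both plates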;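 further: plate controls were untreated wells for no effect and antibiotic for full effect; wells of about 80 µL received 100 nL stock; the first replicate is given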
Autofluor counter: counter-screen for toxin protease inhibitors: compound fluorescence | compound autofluorescence counterscreen, microsphere flow cytometry; hits give high values | fluorescence intensity (concentration not given with the values) | actives 3.1% (n = 360,000);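 active means at least 3 SD above the mean of all compounds, about 16000 in these data; inconclusive means too few beads counted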;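 further: 100 nL of 1 mM stock went into each well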
BJeLR viability: BJeLR cell viability loss. BJeLR (HRASV12) viability, CellTiter-Glo ATP luminescence, 48 h; reference of the scale not given here. inhibition, % (test concentration not listed). actives 0.17% (n = 300,000). AID 1554;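 active means replicate mean above 50%; inconclusive means above 50% but judged a plate artefact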;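 further: 50 nL library stock added to about 25 µL; numbers are from one replicate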
Sa RN4220 lethal: S. aureus RN4220 growth inhibition. OD600, 16 h. inhibition, % (test concentration not listed). actives 0.33% (n = 330,000);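 active means z-score of -3 or lower and OD600 up to 0.18 on both plates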;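 further: plate controls were untreated cells for no effect and reference antibiotic for full effect; stock transfer was 100 nL into about 80 µL; one replicate is shown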
PrP 5UTR inh: inhibition of PrP 5' UTR reporter expression | actives 0.35% (n = 340,000) | AID 488862 | cell-based PrP 5' UTR mRNA reporter, plate reader | inhibition, % (no concentration beside the values);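 active means every replicate at 50% or more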;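 further: 0 = median of the neutral control wells; tested in H4 reporter cells; numbers are from one replicate; inactives centre near -14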
Mtb hypoxia rep: inhibitors of hypoxia-regulated fluorescent reporter in Mycobacterium tuberculosis; actives 0.1% (n = 300,000); M. tuberculosis hypoxia-regulated fluorescent reporter, fluorescence; fluorescence inhibition, % (concentration not given with the values);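 active means 35 to 45% if threefold the growth effect, above 45% if 1.5-fold the growth effect; inactive means the rest, general growth blockers included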;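 further: wells of about 50 µL received 100 nL stock; 0% = vehicle wells and 100% = reference inhibitor wells; whole bacteria with a GFP reporter of the hypoxia response; strong numbers were not always called active; many hits fall short of the cut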
Mtb hypoxia rep growth: further read-out of Mtb hypoxia rep, marked with its call; growth inhibition, %; measured here: M. tuberculosis growth (absorbance);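 0% = vehicle and 100% = reference antibiotic; read after six days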
The depositor's hits bear a star; ? = inconclusive; . = no result given.

SMILES	ugtP null kill	Autofluor counter	BJeLR viability	Sa RN4220 lethal	PrP 5UTR inh	Mtb hypoxia rep	Mtb hypoxia rep growth
CCOC(=O)N1CCC(NC(=O)CCS(=O)(=O)c2ccc3c(c2)CCN3C(C)=O)CC1	6	3197	1	10	-1	2	7
CCCCn1c(-c2cccnc2)n[nH]c1=S	3	2198	6	0.2	-34	0	2
Cc1c(C(=O)N(C)C2CCCCC2)sc2ncnc(N3CCN(c4ccccc4)CC3)c12	-19	5599	-15	0.0	4	-6	-3
Cc1cccc(C)c1NC(=O)C1(N(Cc2ccco2)C(=O)c2ccccn2)CCCC1	1	3328	13	2.9	-1	9	5
O=C(COC(=O)CNC(=O)C1CCCCC1)Nc1ccc(Cl)cn1	8	21353*	2	9.3	-27	8	5
CCOC(=O)N1CCN(C(=O)C2CCN(C(=O)c3cc(OC)cc(OC)c3)CC2)CC1	8	2139	-5	1.8	-27	3	1
CC1(C)CC(NNCCC#N)=CC(=[N+]2CCCC2)C1	-4	4976	4	3.1	-19	8	13
CCOC(=O)C1CCN(CC(=O)NC(=O)NC2CCCCC2)CC1	1	3033	-6	4.5	0	-12	-5
CCC(=NNC(=O)OC)c1ccc(OC(F)F)cc1	7	.	.	-0.1	.	3	6
COc1cc(OC)cc(C(=O)Nc2ncc3c(n2)CC(C)CC3=O)c1 (configuration not stated)	6	2092	17	4.1	-28	.	.
CSc1ncccc1C(=O)Nc1cccc(S(=O)(=O)N2CCCCCC2)c1	7	5407	.	4.6	-7	4	-1
Cc1nn(CC(O)Cn2cnc3c2c(=O)n(C)c(=O)n3C)c(C)c1Br (configuration not stated)	-1	2821	5	2.1	-7	.	.
CC1=CC(C)(C)N2C(=O)C3(SCC(=O)N3c3ccc(O)cc3)c3cc(C)cc1c32 (configuration not stated)	-9	20630*	-17	-2.9	-20	2	11
COc1c(C)cc(C(=O)C2CCCN(Cc3ccccn3)C2)cc1C (configuration not stated)	2	3729	-1	4.6	-23	-2	1
Cc1sc2ncn(CC(=O)N3CCN(c4ccccc4F)CC3)c(=O)c2c1S(=O)(=O)N1CCOCC1	-4	3108	-9	-4.7	-4	-10	-8
CCN(CC(=O)Nc1c(C(=O)OC)[nH]c2ccc(C)cc12)c1ccc2c(c1)OCO2	-7	10549	-12	5.9	-27	11	13
COc1ccc(C)cc1NC(=O)c1cc2ccccc2o1	1	23609*	0	7.0	-25	4	11
Cc1cc(OC(=O)c2ccc(C(F)(F)F)cc2)c([N+](=O)[O-])c(=O)[nH]1	3	5546	0	-0.4	-5	9	8
CC1CCCC(C)N1c1ccc(S(=O)(=O)N2CCOCC2)cc1Cl (configuration not stated)	-2	3782	5	12	-26	2	10
C/C(=N\NC(=O)c1c[nH]c2ccccc12)c1ccccn1	.	4860	25	.	-22	.	.
CCN1C(=O)C2C(c3ccc(-c4ccc(F)cc4)cc3)N[C@@](C)(C(=O)OC)C2C1=O (some centres not stated)	5	.	.	7.3	.	21	14
COc1cccc(C(=O)Oc2c(CN3CCOCC3)cc(Cl)c3cccnc23)c1	2	22802*	6	7.3	-9	4	5
Cc1cc(NC(=O)c2cccc(Br)c2)n[nH]1	2	4082	-14	4.9	-50	-7	4
Cn1c(=O)[nH]c(=O)c2c1nc(NCCCn1ccnc1)n2CCOc1ccccc1	3	2209	12	-6.5	-15	3	3
O=C(Cc1c[nH]c2ccccc12)NCc1ccco1	1	3143	4	2.8	-16	4	3
More entries.
SMILES	ugtP null kill	Autofluor counter	BJeLR viability	Sa RN4220 lethal	PrP 5UTR inh	Mtb hypoxia rep	Mtb hypoxia rep growth
CCOC(=O)c1cc(-c2ccc(OC)cc2)nn1-c1ccccc1C(=O)O	4	4994	7	8.0	6	16	16
COc1ccccc1-c1nc2ccc(Cl)cc2c(=O)n1O	-3	3184	6	2.6	-4	12	7
CS(=O)(=O)N1c2ccccc2[C@@]2(Br)C[C@H]3C(=O)N[C@@H](Cc4ccccc4)C(=O)N3[C@@H]12	.	3760	8	.	7	.	.
CCOC(=O)c1cc(-c2csc(-c3ccc(C(F)(F)F)cc3)n2)on1	-8	4116	1	1.4	-21	-2	14
CCN1CCN(C(=S)c2ccc(OC)cc2)CC1	9	4510	-1	1.8	-17	1	8
Cc1csc(NC(=O)c2ccc(S(=O)(=O)N(C)c3ccccc3)cc2)n1	2	2460	-7	6.5	-18	.	.
CN(C)C(=O)c1cn(-c2ccccc2)c(=O)c2ccccc12	6	?	-11	0.8	-24	17	-2
Nc1cc(Oc2cccnc2)cc([N+](=O)[O-])c1	1	3801	-21	2.4	-23	9	10
CCCCNC(=O)NS(=O)(=O)c1cnccc1Sc1ccc(Cl)cc1	4	5113	5	-5.8	-9	.	.
O=C(NNC(=O)c1cccc(Br)c1)Nc1ccc(Cl)cc1	6	3650	-6	1.5	-23	3	-4
O=C(NCCC(c1ccccc1)c1ccccc1)c1cnc2sccn2c1=O	4	4191	9	-1.7	-15	3	-1
COC(=O)c1sc(NC(=O)c2c(-c3ccccc3)noc2C)nc1C	22	4469	-12	7.0	4	2	-4
COc1ccc2c(c1)OC(c1ccccc1)(C(F)(F)F)NC2=O (configuration not stated)	0	2174	9	2.5	-15	5	3
c1csc(-c2nn3c(Cn4cnc5ccccc54)nnc3s2)c1	17	6070	5	6.7	-5	5	-2
Cc1cc(S(=O)(=O)Nc2ccc(C(=O)NCC(c3ccco3)N3CCCCC3)cc2)ccc1F (configuration not stated)	21	?	-8	-2.4	-28	9	5
O=C(CN1CCOCC1)n1c2ccccc2c2ccccc21	2	2103	-8	0.9	-14	.	.
S=c1[nH]nc(-c2cc(-c3ccccc3)n[nH]2)n1/N=C/c1c(Cl)cccc1Cl	.	4595	-4	.	-5	.	.
COc1ccc(-c2cn3c4c(sc3n2)CCCC4)cc1	-4	9923	9	24	19	7	13
COc1ccc(C(=O)COC(=O)C2CCN(S(=O)(=O)c3cccc4cccnc34)CC2)cc1	-3	2515	-8	4.4	7	-4	12
COC(=O)CSc1nnc(CNC(=O)c2ccc(S(=O)(=O)N(C)C)cc2)n1C	-2	2221	1	2.3	-5	-2	-2
CCN(C(=O)c1cnc(OC)cc1C(F)(F)F)c1ccc(Cl)cc1	-13	5862	-7	-4.5	-14	1	6
O=C(OC(C(=O)NCc1ccco1)C(OC(=O)c1ccccc1)C(=O)NCc1ccco1)c1ccccc1 (configuration not stated)	-2	7121	-1	3.4	-4	5	-1
Cc1ccc(NC(=O)COC(=O)CCC(=O)c2ccc(Cl)cc2)cc1S(=O)(=O)N(C)C	-4	2463	10	19	-15	10	6
COc1cccc2c1C(=O)c1c(O)c3c(c(O)c1C2=O)C[C@@](O)(C(=O)CO)CC3OC1CC(N)C(O)C(C)O1 (some centres not stated)	31	.	.	36	.	.	.
CCCCc1ccc(NC(=O)COc2ccc(C(=O)Nc3ccccc3OC)cc2)cc1	10	.	-10	3.3	.	-4	-3

Complete entries as entered above. Order of screens: ugtP null kill | Autofluor counter | BJeLR viability | Sa RN4220 lethal | PrP 5UTR inh | Mtb hypoxia rep | Mtb hypoxia rep growth
Cc1cc(NC(=O)c2cccc(Br)c2)n[nH]1 across the screens: 2 | 4082 | -14 | 4.9 | -50 | -7 | 4
CS(=O)(=O)N1c2ccccc2[C@@]2(Br)C[C@H]3C(=O)N[C@@H](Cc4ccccc4)C(=O)N3[C@@H]12 across the screens: . | 3760 | 8 | . | 7 | . | .

12 entries from above, reformatted.
Second line of a record – ugtP null kill	Autofluor counter	BJeLR viability	Sa RN4220 lethal	PrP 5UTR inh	Mtb hypoxia rep	Mtb hypoxia rep growth
CCOC(=O)c1cc(-c2ccc(OC)cc2)nn1-c1ccccc1C(=O)O
    4	4994	7	8.0	6	16	16
COc1ccccc1-c1nc2ccc(Cl)cc2c(=O)n1O
    -3	3184	6	2.6	-4	12	7
CS(=O)(=O)N1c2ccccc2[C@@]2(Br)C[C@H]3C(=O)N[C@@H](Cc4ccccc4)C(=O)N3[C@@H]12
    .	3760	8	.	7	.	.
CCOC(=O)c1cc(-c2csc(-c3ccc(C(F)(F)F)cc3)n2)on1
    -8	4116	1	1.4	-21	-2	14
CCN1CCN(C(=S)c2ccc(OC)cc2)CC1
    9	4510	-1	1.8	-17	1	8
Cc1csc(NC(=O)c2ccc(S(=O)(=O)N(C)c3ccccc3)cc2)n1
    2	2460	-7	6.5	-18	.	.
CN(C)C(=O)c1cn(-c2ccccc2)c(=O)c2ccccc12
    6	?	-11	0.8	-24	17	-2
Nc1cc(Oc2cccnc2)cc([N+](=O)[O-])c1
    1	3801	-21	2.4	-23	9	10
CCCCNC(=O)NS(=O)(=O)c1cnccc1Sc1ccc(Cl)cc1
    4	5113	5	-5.8	-9	.	.
O=C(NNC(=O)c1cccc(Br)c1)Nc1ccc(Cl)cc1
    6	3650	-6	1.5	-23	3	-4
O=C(NCCC(c1ccccc1)c1ccccc1)c1cnc2sccn2c1=O
    4	4191	9	-1.7	-15	3	-1
COC(=O)c1sc(NC(=O)c2c(-c3ccccc3)noc2C)nc1C
    22	4469	-12	7.0	4	2	-4

Later entries.
SMILES	ugtP null kill	Autofluor counter	BJeLR viability	Sa RN4220 lethal	PrP 5UTR inh	Mtb hypoxia rep	Mtb hypoxia rep growth
O=S1(=O)N=C(Nc2ccc(N3CCOCC3)c(Cl)c2)c2ccccc21	3	5009	-3	-3.6	-48	4	5
CC(NC(=O)Nc1ccc(F)cc1F)c1ccc2c(c1)OCO2 (configuration not stated)	-2	5357	0	5.4	-2	5	-1
Nn1nnc2ccccc21	25	5845	4	1.2	5	-1	-5
Cc1ccc(C)c(NC(=O)COC(=O)CCc2ccc(S(=O)(=O)N3CCOCC3)cc2)c1	2	4254	2	-1.2	-2	19	7
COCOc1cc(O)c2c(=O)c(OCOC)c(-c3ccc(OCOC)c(OCOC)c3)oc2c1	8	5575	3	6.2	-14	.	.
O=C(CCCCCNC(=O)c1ccccc1)C[N+](=O)[O-]	3	4142	2	4.2	-17	-2	6
COc1ccc(-c2nc(-c3ccncc3)no2)cc1	5	3887	8	3.1	-98	6	-1
CC(OC(=O)c1ccccn1)C(=O)Nc1ccc(C(F)(F)F)cc1 (configuration not stated)	4	?	.	6.5	.	15	8
O=C(NN=Cc1ccc(Sc2ccccn2)o1)c1cc2ccccc2cc1O	-4	.	.	1.8	.	4	8
Cc1cc(C)nc(N/C(=N\S(=O)(=O)Cc2ccccc2)Nc2ccc(F)c(Cl)c2)n1	-9	2944	-6	-2.0	-8	9	10
Cc1ccccc1NC(=O)N1CCc2ccccc2C1	-1	4557	-4	3.7	-25	12	4
COc1ccc(C(=O)CN(CCC(=O)O)S(=O)(=O)c2ccc([N+](=O)[O-])cc2)cc1	11	3259	.	7.0	1	-4	3
N/C(=N\OC(=O)Cc1ccccc1[N+](=O)[O-])c1ccncc1	.	2536	3	.	-15	.	.
CCOC(=O)c1c(C)[nH]c(C)c1C(=O)C(Cc1ccccc1)N(C)C (configuration not stated)	12	3771	0	2.7	-12	5	-8
C=CCN1C(=O)C2(/C(=C(\O)c3ccc4c(c3)OCCO4)C(=O)C(=O)N2CCCOC)c2ccccc21 (configuration not stated)	-3	23166*	5	0.9	-3	9	5
COc1cc(OC)c(CN2CCC(CO)(CCOc3ccccc3)CC2)c(OC)c1	-2	2130	4	1.8	-5	4	-5
COc1ccc(-c2cc(C(F)(F)F)nc(SCC(=O)NCCCN3CCOCC3)n2)cc1	8	2018	-6	3.5	4	1	9
CC(C)(C)c1ccc(S(=O)(=O)Nc2ccccn2)cc1	-7	2560	-1	-1.9	-10	-7	8
NC(=O)COC(=O)/C=C/c1ccccc1[N+](=O)[O-]	-1	4213	8	7.9	-30	-6	6
CCOC(=O)c1c(-c2ccc(C)c(C)c2)csc1NC(=O)C1CC=CCC1C(=O)O (configuration not stated)	-2	3474	0	27	-20	.	.
COc1ccc(CN2CCN(Cc3cc4ccccc4o3)CC2CCO)cc1C (configuration not stated)	8	3966	0	5.1	-33	17	11
COc1ccc(C(=O)NC2CC2)cc1OC1CCN(Cc2ccc(F)cc2Cl)CC1	2	?	-4	1.6	-10	-1	-2
CSc1nnc(-c2cccn(Cc3ccccc3)c2=O)o1	1	3506	-3	0.8	-29	-4	-13
NC(=S)NN=Cc1ccc(OC(=O)c2cccnc2)cc1	1	.	.	1.4	.	.	.
COc1ccc(C(NC(=O)/C=C/c2ccco2)c2ccc(OC)c(OC)c2)cc1 (configuration not stated)	-1	2573	8	1.3	-15	-1	0
